# Screens as filed in PubChem.
# Ba CapD inh: Bacillus anthracis CapD inhibitors, primary screen, biochemical, fluorescence intensity; purified CapD enzyme, fluorescence intensity read-out; hits give low values; some hits fall short of the stated cut; z-score (test concentration not listed); 140,000 tested, 0.23% active; AID 492967, 2010;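 active = z-score under -4 in either of two replicates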;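 note: stock transfer was 100 nL into about 40 µL; score is relative to mean and spread of the plate; one replicate is shown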
# AID504770: growth inhibition of E. coli YBA685, primary screen, V. cholerae RctB inhibitors; E. coli YBA685 rctB-dependent plasmid, OD600 growth, 3 h; hits give low values; 130,000 tested, 0.27% active; z-score (concentration not given with the values); AID 504770, 2011;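 active = z-score under -2 on both plates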;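 note: wells of about 30 µL received 100 nL stock; score is relative to mean and SD of the test wells; the first replicate is given; strong numbers were not always called active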
# * marks the source's active call; other numbers are inactive results; nt = no result given.
SMILES,Ba CapD inh,AID504770
CCCCOc1cccc(NC(=O)CSC2=C(C#N)C(c3ccccc3)C(C(=O)Nc3ccccc3)=C(C)N2)c1 (stereo not drawn),-1.03,nt
CN(C)C(=O)COC(=O)c1cccc(S(=O)(=O)N2CCN(c3ccccc3)CC2)c1,nt,0.85
CC(=O)N1CCN(C(=O)c2c(Cl)nc3sccn23)CC1,0.455,0.05
CC(C)OC(=O)c1cccc(NC(=O)c2ccc(Br)cc2)c1,8.27,-0.55
Nc1c(C(=O)c2ccc(F)cc2)oc2ccccc12,0.195,0.75
Cc1nnc(SCC(=O)N(C)CC(=O)Nc2ccc(F)cc2)n1Cc1ccccc1,nt,-0.65
CC1CCN(S(=O)(=O)c2ccc3[nH]cc(C(=O)NCc4ccccc4Cl)c(=O)c3c2)CC1,21.3,-0.3
C=CCSC1=C(C#N)C(c2ccccc2OCC)C(C#N)C(=O)N1 (stereo not drawn),1.06,-1.1
CCOC(=O)CSC(=S)Nc1c(C)cc(C)cc1C,-0.325,nt
CCc1ccc(Nc2nc(-c3cc4ccccc4oc3=O)cs2)cc1,-1.34,-0.25
Cc1ccc(NC(=O)CN2Cc3ccccc3C2=O)cc1,-1.83,-0.4
O=C(O)CCCN1C(=O)C(O)=C(C(=O)/C=C/c2ccccc2)C1c1ccccc1 (stereo not drawn),nt,-0.5
Cc1csc(NC(=O)CCCN2C(=O)/C(=C\c3ccco3)SC2=S)n1,-0.725,-0.95
COc1cc(C(=O)NC(c2cccs2)c2cc(Cl)c3cccnc3c2O)cc(OC)c1OC (stereo not drawn),-0.595,nt
COc1cc(NC(=O)Cc2ccc(F)cc2)cc(S(=O)(=O)c2ccc(Cl)cc2)c1,-0.215,-0.35
Cc1nn(CC(=O)Nc2ccc(Cl)cc2Cl)c(=O)c2ccccc12,-0.235,nt
CCCc1cc(=O)[nH]c(-c2cccc(C)c2)n1,-0.46,-0.05
CC(=O)C1=C(C)N=c2s/c(=C/c3cc4c(cc3Br)OCO4)c(=O)n2C1c1ccc(N(C)C)cc1 (stereo not drawn),0.325,nt
COC(=O)C1(C#N)C(c2ccccc2)C1(C(=O)OC)C(=O)OC (stereo not drawn),0.78,-1.05
CCOc1ccc(/C=C2/C(=O)NC(=S)N(c3ccc(Br)cc3)C2=O)c(OCC)c1,0.95,nt
O=C(CSc1ccc(C(F)(F)F)cc1[N+](=O)[O-])Nc1ccc(F)cc1,-0.135,nt
O=S(=O)(c1ccccc1)N1CCN(C(=S)NCc2ccccc2)CC1,nt,0.95
Cn1c2ccccc2c2cnn(CC(=O)NC3CCCC3)c(=O)c21,12.5,-0.85
CCOc1ccc(NC(=O)c2ccc(-n3cnnc3)cc2)cc1,-1.04,2.85
NCCCN1Cc2ccccc2C1,nt,-0.6
COc1ccc(/C=C2\C=C(c3ccccc3)N(c3cccc(O)c3)C2=O)cc1Br,-1.87,nt
O=C(OCC(=O)N1CCC(Cc2ccccc2)CC1)c1n[nH]c2ccccc12,0.055,-0.2
C=CCn1c(=O)/c(=C2/Sc3ccc(OC)cc3N2CC)s/c1=C1\SC(=S)N(CCCC)C1=O,-0.29,nt
COc1ccc(Cn2cnc3c(NS(C)(=O)=O)c(C)c(C)cc32)cc1,-0.12,nt
CCC1Oc2nc(SC)nnc2-c2ccccc2N1C(=O)c1ccccc1 (stereo not drawn),-1.28,-1.4
O=C(c1ccco1)N1CCN(C(=O)C2CCCc3c2[nH]c2ccc(Cl)cc32)CC1 (stereo not drawn),0.345,-0.25
O=C(N/C(=C\c1ccc(O)cc1)C(=O)N1CCCCC1)c1ccccc1,nt,-1.55
Cc1oc2ccc(OCc3ccc(Cl)cc3)cc2c1C(=O)O,-0.13,1.5
Cc1[nH]c2ccccc2c1CC1C(=O)N(C)C(=O)N(C)C1=O,0.77,-0.05
COCCN1Cc2cccc(C(=O)Nc3ccc(C(C)C)cc3)c2C1=O,-0.38,0.65
CCOc1cc(C2NC(=O)NC(C)=C2C(=O)Nc2ccc(C)cc2C)ccc1O (stereo not drawn),-0.48,nt

# 14 entries from above, ordered by SMILES length, low to high:
SMILES,Ba CapD inh,AID504770
NCCCN1Cc2ccccc2C1,nt,-0.6
Cc1oc2ccc(OCc3ccc(Cl)cc3)cc2c1C(=O)O,-0.13,1.5
CCOc1ccc(NC(=O)c2ccc(-n3cnnc3)cc2)cc1,-1.04,2.85
Cn1c2ccccc2c2cnn(CC(=O)NC3CCCC3)c(=O)c21,12.5,-0.85
CCC1Oc2nc(SC)nnc2-c2ccccc2N1C(=O)c1ccccc1 (stereo not drawn),-1.28,-1.4
Cc1[nH]c2ccccc2c1CC1C(=O)N(C)C(=O)N(C)C1=O,0.77,-0.05
O=C(N/C(=C\c1ccc(O)cc1)C(=O)N1CCCCC1)c1ccccc1,nt,-1.55
O=C(OCC(=O)N1CCC(Cc2ccccc2)CC1)c1n[nH]c2ccccc12,0.055,-0.2
CCOc1cc(C2NC(=O)NC(C)=C2C(=O)Nc2ccc(C)cc2C)ccc1O (stereo not drawn),-0.48,nt
O=C(CSc1ccc(C(F)(F)F)cc1[N+](=O)[O-])Nc1ccc(F)cc1,-0.135,nt
COc1ccc(/C=C2\C=C(c3ccccc3)N(c3cccc(O)c3)C2=O)cc1Br,-1.87,nt
O=C(c1ccco1)N1CCN(C(=O)C2CCCc3c2[nH]c2ccc(Cl)cc32)CC1 (stereo not drawn),0.345,-0.25
CCOc1ccc(/C=C2/C(=O)NC(=S)N(c3ccc(Br)cc3)C2=O)c(OCC)c1,0.95,nt
C=CCn1c(=O)/c(=C2/Sc3ccc(OC)cc3N2CC)s/c1=C1\SC(=S)N(CCCC)C1=O,-0.29,nt

# The list goes on:
SMILES,Ba CapD inh,AID504770
CCN(C(=O)c1cc2c(=O)[nH]c3ccc(C)cc3c2s1)c1ccccc1,-0.105,-1.25
CCOc1ccc(C(c2c(C)[nH]n(-c3ccccc3)c2=O)c2c(C)[nH]n(-c3ccccc3)c2=O)cc1,-0.24,nt
OC1(c2ccccc2)CN(c2ccccc2)C2=[N+]1CCCC2 (stereo not drawn),0.365,0.35
C/C=C(/C)C(=O)O[C@H]1CC[C@@]2(C)[C@@H]3CC[C@H]4[C@]5(O)C[C@H](O)[C@@]6(O)[C@@H](CN7C[C@@H](C)CC[C@H]7[C@@]6(C)O)[C@]5(O)C[C@@]42O[C@]13O,-0.165,nt
CC(C)(C)C(=O)/C(C#N)=C/Nc1cccc2nsnc12,-0.085,-0.45
CC(=O)Oc1ccc(C2(C)CC(C)(C)NC(=S)N2)c(OC(C)=O)c1 (stereo not drawn),-0.305,nt
COC(=O)COc1ccc(/C=C2\C(=O)NC(=O)N(c3ccc(C)cc3)C2=O)cc1OC,0.36,nt
O=C(c1ccc(Cl)cc1)c1ncc(C(F)(F)F)cc1N1CCOCC1,-0.44,nt
NNC(=O)c1ccc2nsnc2c1,-1.11,nt
Cn1c(=O)cc(OCCCC(=O)NCC2(c3ccccc3)CCCC2)c2ccccc21,1.54,-0.05
O=C(c1nn2c(C(F)(F)F)cc(-c3ccc(Br)cc3)nc2c1Cl)N1CCOCC1,0.255,nt
N#CCCS(=O)(=O)c1ccc2[nH]c(=O)c(=O)[nH]c2c1,20.2,1.45
CCC(C)NC(=O)C1CCN(S(=O)(=O)c2ccc3nc4c(c(C(=O)O)c3c2)CCCC4)CC1 (stereo not drawn),-0.43,-0.45
O=S(=O)(NCc1csc(-c2cccnc2)n1)c1ccc(Cl)s1,nt,-0.55
CCN1CCN(Cc2ccc(-c3ccccc3)cc2)CC1,0.115,-0.5
Cc1cccc(NC(=O)c2ccc(S(=O)(=O)N(C)C)cc2)n1,nt,0
CN1C(=O)c2ccc(Oc3ccc(C(C)(C)c4ccc(Oc5ccc6c(c5)C(=O)N(C)C6=O)cc4)cc3)cc2C1=O,1.71,nt
CCOc1ccccc1NC(=O)[C@@H]1CCCN1S(=O)(=O)c1ccccc1C(F)(F)F,nt,0.15
COC(=O)c1ccc(CSc2nc(-c3ccco3)cc(C(F)(F)F)n2)o1,nt,-0.85
Cc1cccc(N=c2scc(-c3ccco3)n2/N=C/c2c[nH]c3ccccc23)c1C,nt,0.8
O=C(NC(=S)Nc1ccc(N2CCCCC2)cc1)c1ccccc1,0.265,1.35
COc1ccc(-c2cnc(N3CCN(C=O)CC3)nc2)cc1,2.37,nt
O=C(O)COc1cccc(/C=C2/SC(=Nc3ccccc3)NC2=O)c1,-0.195,nt
Cc1ccc(Cl)cc1N1CCN(CCCNC(=O)c2cc3c(C)nc4ccccc4c3o2)CC1,0,1.7
Cc1cc(C(=O)NNC(=O)OCCCCCc2ccccc2)n[nH]1,-0.38,nt
CN(Cc1nc2ccccc2c(=O)[nH]1)C(=O)CCC(=O)N1CCOCC1,nt,0.3
CCN1C(=O)C2C(c3ccccc3C)NC(Cc3ccc(O)cc3)(C(=O)OC)C2C1=O (stereo not drawn),nt,-1.15
COC(=O)/C=C1\S/C(=N\c2ccccn2)N(c2ccc(C)c(C)c2)C1=O,-0.655,-0.4
CC(=O)N1CC(NC(Cc2cnc[nH]2)C(=O)O)C(c2ccc(N(C)C)cc2)=N1 (stereo not drawn),-1.34,-0.45
CN1CCN(c2ccc(S(C)(=O)=O)cc2NC(=O)c2ccc(C(F)(F)F)cc2)CC1,-0.47,nt
O=C(c1ccc(OCCN2CCCCC2)cc1)c1c(-c2ccc(O)cc2)sc2cc(O)ccc12,-0.56,nt
Nc1nnn2c(=O)c3cccc4cccc(c43)c12,nt,0.1
CC(CNC(=O)CCc1nnc2ccc(NCCCN3CCCC3=O)nn12)c1ccccc1 (stereo not drawn),4.11,-0.65
Cc1[nH]c(=O)[nH]c(=O)c1S(=O)(=O)NCCOC12CC3CC(CC(C3)C1)C2,0.485,0.85
CC1(C)CC(=O)C2=C(C1)Nc1ncnn1C2c1ccc(Cl)cc1Cl (stereo not drawn),-0.7,nt
CC(C)(C)P(=O)(c1ccncc1)N1CCCCCC1 (stereo not drawn),nt,-1.55
Cc1cc(C)cc(NC(=O)N2CCC3(CC2)OCCO3)c1,-0.28,-0.3
Cn1c(=O)c2c(nc(CN3CCN(c4cccc(Cl)c4)CC3)n2CCCO)n(C)c1=O,0.025,0
O=c1c(-c2ccccc2)coc2cc(O)ccc12,6.7,-0.5
O=C(NC1CC1)C1C2C=CC3(O2)C1C(=O)N(Cc1ccccc1)C3C(=O)NC1CCCC1 (stereo not drawn),nt,-0.7
O=C(CSc1nnc2scc(-c3ccccc3)n12)c1ccc2c(c1)OCCO2,-0.64,1
O=C(Nc1ccccc1)C1COc2ccccc2O1 (stereo not drawn),-0.3,nt
COc1ccc(OC)c(N(C)S(=O)(=O)c2ccc3c(c2)N(C(C)=O)CCO3)c1,-0.25,1.15
O=C1CC(c2ccc(-c3ccccc3)cc2)c2ccc3ccccc3c2N1 (stereo not drawn),-0.115,nt
CC(C)(C)C(=O)Nc1ccc(Cl)cc1-c1noc(C(C)(C)C)n1,0.13,-0.35
CCOc1ccc(CCNC(=O)C2CCCN(C(=O)c3cc4sccc4n3CC)C2)cc1OCC (stereo not drawn),-0.055,-0.3
CCCn1c(N)c(C(=O)CN2CC(C)OC(C)C2)c(=O)[nH]c1=O (stereo not drawn),nt,1.55
COc1cccc(N/C=C(\C#N)c2ccc(Cl)cc2)c1,-1.18,-0.5
COc1ccc2oc(=O)c(-c3cn4ccccc4n3)cc2c1,0.635,1.9
O=C(NCc1ccc(Cl)cc1)C1c2ccccc2Oc2ccccc21,73.7,1.7
CCCn1c(C)cc(C(=O)COC(=O)c2nn(CCC)c(=O)c3ccccc23)c1C,nt,1.5
O=C(Nc1ccc2c(c1)OCCO2)Nc1nnc(N2CCCC2)s1,0.25,-0.4
O=C1C=CC(=O)C(c2ccc(Br)cc2)=C1,-0.065,0.15
O=C(ON(Cc1c(F)cccc1Cl)Cc1c(F)cccc1Cl)c1ccc(Cl)cc1,-0.395,0.2
O=C(O)CCC(=O)/C=C/c1ccccc1,-0.08,-0.65
Cc1nn(-c2ccccc2)c2c1C1(C(=O)Nc3ccc(Br)cc31)C(C#N)=C(N)O2 (stereo not drawn),-0.18,nt
COc1ccc(C2NNC(=S)S2)cc1 (stereo not drawn),-0.065,1.35
CCN(CCCN)Cc1ccccc1,nt,-0.35
CN1C2C=C(N(CCc3ccccc3)C(=O)c3ccccc3)CC1CC2 (stereo not drawn),0.25,nt
Cc1cccc(NCc2nnc3n2CCCCC3)c1,-0.345,nt
# (further entries)
SMILES,Ba CapD inh,AID504770
C/C(=C\C#N)Nc1cccc(C(F)(F)F)c1,0.565,0.15
COc1ccc(C(=O)NCc2ccoc2C(=O)O)cc1,-0.515,-0.7
O=C1CCC(=O)N1c1ccccc1N1CCOCC1,1.19,1
CCOc1ccc(C2c3c(oc4ccccc4c3=O)C(=O)N2c2ccccn2)cc1 (stereo not drawn),-0.35,-0.2
C/C(=N\OCC(=O)Nc1oc(-c2ccccc2)c(-c2ccccc2)c1C#N)c1ccc(C)cc1,1.59,nt
CCOC(=O)c1[nH]c(C)c(C)c1O,0.14,-0.8
CC(Sc1ncn(-c2ccccc2)n1)C(=O)Nc1nccs1 (stereo not drawn),nt,-0.05
O=C1COc2ccc(-c3csc(-n4nccc4C(F)(F)F)n3)cc2N1,nt,-0.2
O=C(O)C1C2C=CC(CC2)C1C(=O)NCCc1ccccc1 (stereo not drawn),-2.02,2.9
Cc1ccc(-n2c(O)c(C=NCC3CCCO3)c3ccccc3c2=O)cc1C (stereo not drawn),0.31,0.1
O=C(Cn1nnc(-c2ccc(F)cc2)n1)NC(=O)NC1CCCCC1,nt,0.65
O=C1C2CCCCC2C(=O)N1c1cc([N+](=O)[O-])ccc1F (stereo not drawn),-0.89,nt
CC(CNC(=O)Cn1ncc2ccccc21)c1ccccc1 (stereo not drawn),0.335,0.8
CCOc1ccc(-c2ccc(NS(=O)(=O)c3ccccc3)cc2)nn1,0.01,0.05
C=CCN1C(=O)c2ccccc2N2C(=O)CCC12C(=O)NCc1ccccc1 (stereo not drawn),nt,-0.25
O=C(c1ccc(Cl)cc1)c1ccc(S(=O)(=O)c2ccc(Cl)cc2)cc1,0.37,-0.05
